ClpP mod: qHTS Assay for Activators of ClpP | 340,000 tested, 1.9% active | Potency, µM (titrated, usually from 57.5 µM), without a hit: at the top dose activity change, negative = active | ATP-dependent Clp protease proteolytic subunit (Bacillus subtilis (strain 168)), P80244 | purified B. subtilis ClpP, FRET peptide cleavage, 20 min; active = well fitted falling curve with a large enough effect; inconclusive = small, poorly fitted or top-dose-only effect; inactive = no such curve, though single readings can be large or run the other way; note: potency is the fitted concentration of half-maximal effect; the source files actives as falling curves though it sought activators and does not explain the sign; nearly all actives have a fitted effect of over 65% in size; many hits overshoot -100%
Target sequence (P80244 whole entry, looked up): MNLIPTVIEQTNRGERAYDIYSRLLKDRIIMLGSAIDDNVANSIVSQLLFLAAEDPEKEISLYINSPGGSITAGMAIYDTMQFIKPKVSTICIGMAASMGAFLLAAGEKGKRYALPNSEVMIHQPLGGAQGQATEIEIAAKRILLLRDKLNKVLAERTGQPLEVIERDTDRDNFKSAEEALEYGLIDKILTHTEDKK
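ClpP 10 microg/mL final, pH 8 Tris/KCl buffer with BSA, glycerol, Tween-20; compound pinned in; FRET-FV substrate; RT 20 min; Ex320/Em430; ΔFRET vs ADEP 5.8 microM, DMSO, no enzyme.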
TRPML1 ag: agonists of human TRPML1 channel. TRPML1-expressing cells, Ca2+ dye fluorescence, FDSS; host cell line not named in the record; reference of the full effect not given here. AID 624414. Q9GZU1. 410,000 tested, 0.12% active. activation, % (concentration not given with the values); in the data active = activation above about 50%; inconclusive = about 30% to 50%; inactive = below about 30%; note: 0% is about no effect; the text of the record puts the active cut at 80%
Target sequence (Q9GZU1 whole entry, looked up): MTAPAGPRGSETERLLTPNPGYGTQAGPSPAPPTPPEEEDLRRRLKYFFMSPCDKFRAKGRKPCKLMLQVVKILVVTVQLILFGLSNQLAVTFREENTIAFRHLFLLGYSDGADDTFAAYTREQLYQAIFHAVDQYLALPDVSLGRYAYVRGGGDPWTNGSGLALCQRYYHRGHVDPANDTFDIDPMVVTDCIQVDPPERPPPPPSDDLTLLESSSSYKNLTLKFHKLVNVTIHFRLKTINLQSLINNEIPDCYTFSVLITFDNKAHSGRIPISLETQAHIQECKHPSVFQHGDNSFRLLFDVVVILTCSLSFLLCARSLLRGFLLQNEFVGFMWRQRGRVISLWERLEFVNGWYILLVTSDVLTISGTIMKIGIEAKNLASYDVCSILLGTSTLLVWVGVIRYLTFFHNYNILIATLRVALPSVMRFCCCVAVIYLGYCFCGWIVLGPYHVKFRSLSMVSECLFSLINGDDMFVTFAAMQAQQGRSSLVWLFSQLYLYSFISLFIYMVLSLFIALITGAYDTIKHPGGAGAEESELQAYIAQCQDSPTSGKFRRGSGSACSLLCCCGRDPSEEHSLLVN
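Agonist activity was taken from a 110 s kinetic Ca2+ dye read on the FDSS after pinning compounds onto TRPML1-DL cells. The cells were seeded at 1,500/well with Tet inducer, incubated about 16 h, then dye-loaded at room temperature.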
TRPML1 blocker: human mucolipin-1 channel inhibition. AID 624415. 390,000 tested, 0.02% active. TRPML1-inducible cells, Ca2+ dye fluorescence, FDSS; stronger effect = lower value; inhibition of EC80 agonist-evoked calcium signal. activity change, negative = inhibition, % (concentration not given with the values); in the data active means activity change below about -50%; inconclusive means about -30% to -50%; inactive means above about -30%;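 note: stimulus is agonist 54-4 at its EC80 concentration; % is set by controls: 0 for no effect and ±100 for the full control effect; compound concentration not given in the record; the text of the record puts the active cut at -80%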
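Tet-induced TRPML1-DL cells loaded with Ca8 no-wash calcium dye were read kinetically on FDSS. Compound addition was followed by EC80 agonist 54-4 (4 uM final); inhibition was read over 110 s.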
gsp agonist: gsp mutant agonism; 340,000 tested, 0.13% active; Potency, µM (top dose mostly 76.9 µM), for the others: top-dose activation (cAMP increase), hits mostly activators; AID 624287; gsp mutant cells, cAMP HTRF, 30 min; control for the full effect not named in the record; active = well fitted activation curve with a large enough effect; inconclusive = small, poorly fitted or top-dose-only effect, or another doubt; inactive = no such curve, though single readings can be large or run the other way; cell line not stated here;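 note: phosphodiesterase inhibitor Ro 20-1724 added with compounds to block cAMP breakdown; potency is the fitted concentration of half-maximal effect; nearly all actives have a fitted effect of over 60% in size; about a fifth of the inactives were tested at one dose only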
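Cells in DMEM/10% FBS with G418 were pretreated with compounds in DMSO plus […] (300 uM stock) for 30 min at 37C. cAMP was measured by HTRF (cAMP-d2 plus anti-cAMP antibody-K) after 30 min at room temperature.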
Menin-MLL FL inh: menin-MLL binding inhibition, fluorescein peptide | 290,000 tested, under 10 active | Fluorescence polarization, fluorescein-MLL peptide displacement from menin | AID 1766 | FP activity change, % at 61.4 µM; inconclusive = falling polarisation curve, or a change in total fluorescence; inactive = total fluorescence flat and polarisation flat or rising; no compound was filed as active; the % refers to the polarisation; negative = inhibition;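 note: % of control where 0% means no effect; inhibitors lower the polarisation; unlabelled MLL peptide was the positive control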
gsp antag: antagonizes gsp, the McCune-Albright syndrome mutation | gsp-mutant cells, cAMP HTRF, 30 min; control for the full effect not named in the record | Potency, µM (series often up to 76.9 µM), without a hit: top-dose activity change, negative = inhibition, usual class: inhibitors | 340,000 tested, 0.4% active | AID 624288; active = falling curve of any shape with a large fitted effect; inconclusive = falling curve, mostly with a smaller effect; inactive = flat or rising curve; cell line not stated here;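 note: intracellular cAMP measured with PDE inhibitor Ro 20-1724 present during compound exposure; potency is the fitted concentration of half-maximal effect; % is set by controls: 0 for no effect and ±100 for the full control effect; nearly all actives have a fitted effect of over 65% in size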
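Cells in G418 medium, seeded 16-24 h, 37C; buffer exchange to DPBS + 1 mM CaCl2, 0.5 mM MgCl2, 0.05% BSA; cpds in DMSO + […] (300 uM stock), 30 min 37C; HTRF cAMP detection.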
Starred values were filed as active, the others as inactive; ? = inconclusive; / = no result given; & = joins results of further samples; [ ] = dose if it differs, or a comment. Rows are unselected; 2.1% or so of the library scored in one or more.

SMILES	ClpP mod	TRPML1 ag	TRPML1 blocker	gsp agonist	Menin-MLL FL inh	gsp antag
COc1cccc(CNC(=O)CCC2CCCN(C(=O)c3ccoc3)C2)c1 (stereo unspecified)	/	0.1	-5	-45%[inhibitor]	-4.9	4%
COCc1cc(C)nc2sc(C(=O)N3CCCCC3)c(N)c12	1.7%	-0.4	15	22%	-0.5	6%
CCC(C)N1CCN(C(=O)C2CCN(S(=O)(=O)c3c(C)noc3/C=C/c3ccco3)CC2)CC1 (stereo unspecified)	-5.8%	-0.2	-3	?	2.7	0%
CCOc1ccccc1NC(=S)NC(=O)C1CC1	0.0%	-0.7	-3	-20%[15.4 µM]	/	-4%
COc1ccc(OC)c(S(=O)(=O)N2CCCC(C(=O)NCc3ccncc3)C2)c1 (stereo unspecified)	/	-0.3	-1	-2%	4.2	1%
CCOC(=O)C1(CC2CCCCO2)CCN(Cc2cn[nH]c2-c2cccc(F)c2)CC1 (stereo unspecified)	-2.2%	0.4	14	-2%	0.8	10%
O=C(CCCSc1nc2ccccc2[nH]1)NCc1ccccc1F	/	0.3	-24	-8%[15.4 µM]	1.0	3%
COc1ccc(C(=O)Nc2ccccc2C(=O)NCC2CCCO2)cc1 (stereo unspecified)	-3.4%	0.4	-5	7%[15.4 µM]	0.2	2%
Cc1ccc(S(=O)(=O)N2CCCN(C(=O)CNC(=O)c3cccc(C)c3)CC2)cc1	-0.8%	0.7	3	3%	/	2%
CCn1c(SCC(=O)Nc2ccc(F)cc2)nnc1C1CC1	/	0.4	25	9%	-1.6	5%
Cc1cc(C)c2nc(-c3ccccn3)cc(C(=O)N3CCCC3)c2c1	3.2%	-0.6	23	?	/	3%
O=C(Nc1ncnc2sc3c(c12)CCCCC3)c1ccccc1	-2.9%	1.2	3	2%	0.2	-22%
Cc1cccc(CCNC(=O)C2CC(O)CN2C(=O)Nc2ccccc2)c1 (stereo unspecified)	0.8%	-0.4	5	3%	/	/
COc1ccccc1Nc1nnc(SCC(=O)N2CC(=O)Nc3ccccc32)s1	-1.3%	0.4	-12	?	-0.4	-7%
COc1ccc(-n2nc(C(=O)NCC(=O)N3CCN(c4ccccn4)CC3)c3ccccc3c2=O)cc1OC	-1.7%	-0.2	13	1%	0.8	-14%
Cc1cc(-c2ccc(C)c(S(=O)(=O)NCCN3CCC(C)CC3)c2)on1	0.6%	-0.5	-3	0%	4.9	0%
Cn1c(-c2ccco2)nc2cc3ccccc3cc21	?	0.1	4	5%	4.6	-7%
COc1ccc2cc(CCOC3CCCCO3)ncc2c1 (stereo unspecified)	4.5%	0.1	-18	-45%[inhibitor]	/	-3%
CCOc1ccccc1CNCc1c(C(=O)O)c(C)n(Cc2ccc(Cl)cc2)c1C	-0.5%	0.6	21	/	/	/
COc1ccc(NC(=O)CSc2ncn[nH]2)c([N+](=O)[O-])c1	11%	0.7	-1	-64%[inhibitor]	2.2	2%
Cc1ccc2[nH]c3c(c2c1)CN(C(=O)CN1CCN(c2cccc(C)c2C)CC1)CC3	-1.5%	0.0	-11	0%	?	-12%
Cc1cc(C)n2nc(-c3ccccc3)cc2n1	/	1.0	1	4%[15.4 µM]	0.2	7%
CCc1nc2nc(C)cc(Nc3ccc(F)c(Cl)c3)n2n1	-2.2%	0.9	17	/	/	/
CC(=O)O[C@H]1C[C@@]2(C)[C@@H](C[C@@H](O)[C@H]3[C@@]4(C)CC[C@@H](O)[C@@H](C)[C@@H]4CC[C@@]32C)/C1=C(\CCC=C(C)C)C(=O)O	0.1%&0.5%	-0.2&0.3	-2&-1	/	/	?

Some of these compounds in order of molecular weight, rising.
SMILES	ClpP mod	TRPML1 ag	TRPML1 blocker	gsp agonist	Menin-MLL FL inh	gsp antag
Cn1c(-c2ccco2)nc2cc3ccccc3cc21	?	0.1	4	5%	4.6	-7%
CCc1nc2nc(C)cc(Nc3ccc(F)c(Cl)c3)n2n1	-2.2%	0.9	17	/	/	/
CC(=O)O[C@H]1C[C@@]2(C)[C@@H](C[C@@H](O)[C@H]3[C@@]4(C)CC[C@@H](O)[C@@H](C)[C@@H]4CC[C@@]32C)/C1=C(\CCC=C(C)C)C(=O)O	0.1%&0.5%	-0.2&0.3	-2&-1	/	/	?

Next section
SMILES	ClpP mod	TRPML1 ag	TRPML1 blocker	gsp agonist	Menin-MLL FL inh	gsp antag
CCN1C(=O)c2ccccc2S(=O)c2ccc(C(=O)NCc3ccccn3)cc21 (stereo unspecified)	1.2%	-0.7	9	40%	1.7	4%
O=C(NCc1ccccc1Cl)C1CCCN(c2ncnc3onc(-c4ccc(F)cc4)c23)C1 (stereo unspecified)	-17%	1.4	15	/	/	/
CC(C)(C)NC(=O)C1CCC(CNS(=O)(=O)c2cccc3nsnc23)CC1 (stereo unspecified)	0.1%	-0.6	25	?	/	-4%
CCCc1ccc(C(O)c2ncc(-c3ccccc3)[nH]2)cc1 (stereo unspecified)	-4.7%	1.7	20	/	/	/
CCN(CCS(=O)(=O)c1ccc(Cl)cc1)Cc1nc2ccccc2c(=O)[nH]1	0.8%	4.1	6	27%	/	-1%
O=C(CSc1ncccn1)NCc1cccs1	-2.0%	-0.7	18	-6%[15.4 µM]	-0.5	7%
N#CCCN(CCC#N)C(=O)COc1ccc(Cl)cc1Cl	-0.9%	-0.8	-7	-41%[inhibitor]	3.1	9%
O=C(CSc1ccccc1)N[C@@H](Cc1ccccc1)C(=O)O	-3.3%	0.0	-18	4%	1.7	8%
CCS(=O)(=O)N1CCCC(C(=O)NCC2CCCO2)C1 (stereo unspecified)	0.0%	-0.3	2	-49%[inhibitor]	2.0	-9%
CCCC(=O)NC(c1cccs1)c1cc([N+](=O)[O-])c2cccnc2c1O (stereo unspecified)	-1.6%	-0.7	0	21%[15.4 µM]	4.7	-24%
O=C1NC(Cc2ccccc2)c2nc3cc(F)ccc3c(=O)n2-c2ncccc21 (stereo unspecified)	-13%	-0.3	-4	-63%[inhibitor]	/	/
Cc1occc1C(=O)Nc1c(F)cc(F)cc1Br	-1.1%	0.5	-6	-25%	-3.0	0%
CCOc1ccc(N2CC(=O)SC2=S)cc1	0.9%	-0.5	18	-2%	6.6	-6%
O=C(NC12CC3CC(CC(C3)C1)C2)c1ccccc1	/	3.0	-6	8%	-1.3	2%
O=C(c1ccc(Cn2cc([N+](=O)[O-])cn2)o1)N1CCCCCC1	0.3%	0.0	1	?	-6.1	1%
O=C(/C=C/c1cccc(Cl)c1)NCCN1CCOCC1	-6.2%	0.7	19	-20%	1.5	7%
N/C(=N\OC(=O)c1cc(Cl)ccc1Cl)c1ccccn1	-1.2%	4.1	-10	14%	4.5	0%
COc1ccc2nc(SCC(=O)Nc3ccc(S(=O)(=O)N4CCCC4)cc3)c(C#N)cc2c1	-4.1%	1.7	-12	?	13	1%
O=c1oc2ccccc2c(NCCc2ccccc2)c1[N+](=O)[O-]	-0.5%	1.2	7	-9%[15.4 µM]	5.9	-8%
C=CCN(C(=O)c1oc2c(Cl)cc(C)cc2c1C)C1CCS(=O)(=O)C1 (stereo unspecified)	-0.1%	-0.8	8	-9%	/	-15%
CC(=O)Nc1ccc(S(=O)(=O)N2c3ccccc3NC(=O)CC2C)c(Cl)c1 (stereo unspecified)	/	1.1	-19	1%[15.4 µM]	2.3	3%
CCOc1ccc(S(=O)(=O)N2CCOCC2)cc1[N+](=O)[O-]	1.1%	1.0	6	-124%[inhibitor]	-4.7	6%
Cc1ccc(NC(=O)CN2C(=O)CC(c3ccc(F)cc3)=Nc3ccccc32)cc1F	-5.0%	2.7	-5	/	/	/
COC(=O)C1=C(O)/C(=C\c2cc(C)n(-c3ccccc3C)c2C)N=C1C	-11%	-0.1	11	-5%	?	-10%
COc1ccc2cc1Oc1ccc(cc1)C[C@H]1c3c(cc(OC)c4c3Oc3c(ccc5c3[C@H](C2)N(C)CC5)O4)CCN1C	-4.5%	2.4	-2	/	/	3%
CN(CC(=O)Nc1ccc(Cl)cc1)CC(=O)N1CCc2ccccc21	1.7%	-0.8	9	?	/	/
COc1cc(C(=O)Nc2ccc(S(=O)(=O)NC(C)(C)C)cc2)cc(OC)c1OC	1.9%	0.9	-2	?	3.5	2%
O=C(NNC(=O)c1ccc(-c2ccccc2)cc1)Nc1ccccc1	/	0.0	-16	?	/	4%
c1ccc2n[nH]nc2c1	0.7%	0.8	-3	0%	/	-8%
Cc1cccc(NC(=O)c2c([N+](=O)[O-])cnn2C)c1	0.0%	-0.6	-4	-43%[inhibitor]	1.6	6%
CCOC(=O)c1ccc(NC(=O)Cn2nnc(-c3ccc(C)cc3)n2)cc1	-1.8%	1.5	6	-27%	0.6	0%
CC(=O)Nc1ccc(S(=O)(=O)Nc2nnc(C(C)(C)C)s2)cc1	-1.1%	0.0	-6	8%	-3.3	-3%
CC1(C)CC(N2CCC(=O)NC2=S)CC(C)(C)N1	/	-0.5	-6	17%[15.4 µM]	/	14%
COc1ccc(S(=O)(=O)Nc2ccccc2C(=O)N2CCCC2)cc1OC	0.9%	0.8	4	?	-2.2	14%
CC(C)C(NS(=O)(=O)c1ccc2c(c1)oc(=O)n2C)C(=O)N1CCN(Cc2ccccc2)CC1 (stereo unspecified)	1.0%	-0.2	11	15%	1.8	-5%
O=C(c1ccc2c(c1)OCO2)N1CCN(c2cccc(C(F)(F)F)c2)CC1	-1.8%	-0.9	-10	-11%[15.4 µM]	-1.5	-4%
O=C1Nc2ccccc2C12OC1CCCCC1O2 (stereo unspecified)	-7.0%	-0.3	2	-36%	0.9	4%
COc1ccc(OCc2cc(C(=O)NCCc3ccccc3)no2)c(Cl)c1	0.4%	0.6	-2	12%	0.2	-4%
Nc1c(C(=O)NCc2ccco2)sc2nc3c(cc12)C(=O)CCC3	4.9%	-0.1	-5	15%	2.4	-2%
Cc1cc(=O)oc2cc(NC(=O)c3ccccc3Cl)ccc12	/	-0.6	12	5%[15.4 µM]	/	-2%
CC1=C(C(=O)OC2CCCCCC2)C(c2cccc(F)c2F)CC(=O)N1 (stereo unspecified)	-4.9%	0.3	-12	/	/	/
CN(C)c1ccc2c3c(ccc(N(C)C)c13)COC2	/	0.3	-10	4%	0.6	0%
CCCCOC(=O)c1ccc(NC(=O)CSCc2n[nH]c(=O)[nH]2)cc1	-1.9%	-0.9	3	-16%	10	8%
CC(C)Sc1cc(N2CCOCC2)nc(-c2ccccc2)n1	-4.6%	0.4	-1	2%[15.4 µM]	?	-22%
CCn1cc(CN(C)C(=O)/C=C/c2ccc([N+](=O)[O-])cc2)c(C)n1	-1.2%	0.2	16	-58%[inhibitor]	-0.8	-7%
COc1ccc(CCCC(=O)N/N=C/c2cccc(OC)c2O)cc1C	-0.9%	0.9	15	-4%	/	9%
O=C(O)CCc1nn2c3ccccc3nc2n(-c2ccccc2)c1=O	0.8%	0.4	20	-49%	0.2	-22%
Cc1ccc(-c2nnn3c2nc(NC(C)C)c2ccccc23)cc1	3.7%	-0.5	-15	?	-9.9	-1%

Source: PubChem BioAssay
